gsp ag – qHTS for Agonist of gsp, the Etiologic Mutation Responsible for Fibrous Dysplasia/McCune-Albright Syndrome: qHTS. gsp mutant cells, cAMP HTRF, 30 min; control for the full effect not named in the record. Potency, µM (top dose mostly 76.9 µM), inactives show at the top dose activation (cAMP increase), actives largely listed as activators. 340,000 tested, 0.13% active. AID 624287, 2012; active = well fitted activation curve with a large enough effect; inconclusive = small, poorly fitted or top-dose-only effect, or another doubt; inactive = no such curve, though single readings can be large or run the other way; cell line not stated here;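 further: phosphodiesterase inhibitor Ro 20-1724 added with compounds to block cAMP breakdown; potency means the concentration at half of the fitted maximal effect; nearly all actives have a fitted effect of over 60% in size; about a fifth of the inactives were tested at one dose only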
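Cells in DMEM/10% FBS with G418 were pretreated with compounds in DMSO plus […] (300 uM stock) for 30 min at 37C. cAMP was measured by HTRF (cAMP-d2 plus anti-cAMP antibody-K) after 30 min at room temperature.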
gsp antagonist – qHTS for Antagonists of gsp, the Etiologic Mutation Responsible for Fibrous Dysplasia/McCune-Albright Syndrome: qHTS; Potency, µM (highest dose often 76.9 µM), inactives show at the highest dose activity change, negative = inhibition, actives largely listed as inhibitors; AID 624288, 2012; 340,000 tested, 0.4% active; gsp-mutant cells, cAMP HTRF, 30 min; control for the full effect not named in the record; active = falling curve of any shape with a large fitted effect; inconclusive = falling curve, mostly with a smaller effect; inactive = flat or rising curve; cell line not stated here;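 further: intracellular cAMP measured with PDE inhibitor Ro 20-1724 present during compound exposure; potency means the concentration at half of the fitted maximal effect; on the % scale 0 is the no-effect control and ±100 the full control effect; nearly all actives have a fitted effect of over 65% in size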
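HTRF cAMP read-out (cAMP-d2 plus anti-cAMP antibody-K in lysis buffer, 30 min RT). Before lysis, cells are exposed to compounds with […] for 30 min at 37C in DPBS containing Ca/Mg, BSA and Tween 20.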
Sfp PPTase inh – qHTS Assay for Inhibitors of Bacillus subtilis Sfp phosphopantetheinyl transferase (PPTase); 4'-phosphopantetheinyl transferase ffp (Bacillus subtilis), Q9F4F7; Biochemical Sfp PPTase activity, qHTS; Potency, µM, for inactives: max response, negative = inhibition, usual class: inhibitors; 310,000 tested, 3.5% active; active means well fitted inhibition curve with a large enough effect; inconclusive means small, poorly fitted or top-dose-only effect, or another doubt; inactive means no such curve, though single readings can be large or run the other way;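 further: the enzyme is Sfp with the accession as filed and its product quenches rhodamine fluorescence; potency means the concentration at half of the fitted maximal effect; 0% = enzyme reaction without inhibitor and -100% = no enzyme wells; top concentration of the series not given in the record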
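Fluorescence-quenching assay: 15 nM Sfp-PPTase preincubated 15 min at room temperature with compound, then 5 uM rhodamine-CoA and 12.5 uM BHQ-2-labelled YbbR peptide added. Fluorescence (ex 525/em 598 nm) read at start and after 30 min; difference gives rate.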
CtBP-E1A blk – qHTS Assay for Inhibitors of the CtBP/E1A Interaction; AlphaScreen GST-E1A/His-CtBP binding, 1536-well; hits give low values; control for the full effect not named in the record; CtBP / adenovirus E1A interaction (AlphaScreen); 340,000 tested, 0.49% active; activity change, % (test concentration not listed); in the data active means activity change below about -65%; inconclusive means about -30% to -65%; inactive means above about -30%; further: on the % scale 0 is the no-effect control and ±100 the full control effect; compound concentration not given in the record
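In 5 uL wells, 23 nL compound meets equimolar GST-E1A and His-CtBP (5X stock 125 nM each) for 2 h, 37 °C. Beads (5X, 50 ug/mL) then 1 h, 37 °C, dark.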
Menin-MLL FL inh – qHTS Assay for Inhibitors Targeting the Menin-MLL Interaction in MLL Related Leukemias: Competition With Fluorescein Labeled MLL-derived Peptide; AID 1766, 2009; FP activity change, % at 61.4 µM; Fluorescence polarization, fluorescein-MLL peptide displacement from menin; 290,000 tested, under 10 active; inconclusive = falling polarisation curve, or a change in total fluorescence; inactive = total fluorescence flat and polarisation flat or rising; no compound was filed as active; the % refers to the polarisation; negative = inhibition;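 further: % of control where 0% means no effect; inhibitors lower the polarisation; unlabelled MLL peptide was the positive control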
TRPV1 PAM – HTS Assay for Compounds that Act as Potentiators of the Vanilloid Receptor 1 | 320,000 tested, 0.02% active | TRPV1-expressing cells, Fluo-8 calcium influx, capsaicin EC20 potentiation; host cell line not named in the record; control for the full effect not named in the record | potentiation, % at 8.33 µM; active means potentiation above 80%; inconclusive means 30% to 80%; inactive means below 30%; further: 0% is about no effect
Target sequence (Q8NER1 whole entry, looked up): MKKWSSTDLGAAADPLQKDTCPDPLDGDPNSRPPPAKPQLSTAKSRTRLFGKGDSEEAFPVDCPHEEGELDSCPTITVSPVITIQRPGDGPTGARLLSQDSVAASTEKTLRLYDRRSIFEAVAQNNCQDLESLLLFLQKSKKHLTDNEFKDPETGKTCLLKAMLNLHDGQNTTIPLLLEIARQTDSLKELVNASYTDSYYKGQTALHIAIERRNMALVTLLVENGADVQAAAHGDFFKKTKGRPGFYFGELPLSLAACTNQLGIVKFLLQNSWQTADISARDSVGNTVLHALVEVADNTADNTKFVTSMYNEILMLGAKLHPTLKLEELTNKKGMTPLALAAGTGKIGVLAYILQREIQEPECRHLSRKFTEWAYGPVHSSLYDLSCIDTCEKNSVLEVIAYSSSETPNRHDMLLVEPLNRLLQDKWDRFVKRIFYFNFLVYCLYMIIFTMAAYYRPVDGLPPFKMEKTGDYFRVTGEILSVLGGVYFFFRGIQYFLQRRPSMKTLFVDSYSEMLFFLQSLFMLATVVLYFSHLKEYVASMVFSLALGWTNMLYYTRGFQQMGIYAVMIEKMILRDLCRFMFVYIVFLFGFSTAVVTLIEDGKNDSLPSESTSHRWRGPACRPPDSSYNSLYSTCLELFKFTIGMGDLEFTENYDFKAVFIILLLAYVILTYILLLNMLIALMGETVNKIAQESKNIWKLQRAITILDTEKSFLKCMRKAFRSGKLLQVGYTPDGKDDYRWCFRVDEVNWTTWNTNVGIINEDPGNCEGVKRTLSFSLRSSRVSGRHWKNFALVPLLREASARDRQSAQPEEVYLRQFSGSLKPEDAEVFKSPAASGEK
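Cells expressing TRPV1 were dye-loaded with Fluo-8 and read kinetically: 10 s baseline, 3 min after compound (agonist portion), then 2 min after EC20 capsaicin (allosteric enhancer portion). Calcium-bound dye fluorescence at 480/520 nm.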
ClpP mod – qHTS Assay for Activators of ClpP; ATP-dependent Clp protease proteolytic subunit (Bacillus subtilis (strain 168)), P80244; purified B. subtilis ClpP, FRET peptide cleavage, 20 min; Potency, µM (titrated, usually from 57.5 µM), for the others: top-dose activity change, negative = active; 340,000 tested, 1.9% active; AID 651965, 2013; active = well fitted falling curve with a large enough effect; inconclusive = small, poorly fitted or top-dose-only effect; inactive = no such curve, though single readings can be large or run the other way; further: potency means the concentration at half of the fitted maximal effect; the source files actives as falling curves though it sought activators and does not explain the sign; nearly all actives have a fitted effect of over 65% in size; many hits overshoot -100%
Target sequence (P80244 whole entry, looked up): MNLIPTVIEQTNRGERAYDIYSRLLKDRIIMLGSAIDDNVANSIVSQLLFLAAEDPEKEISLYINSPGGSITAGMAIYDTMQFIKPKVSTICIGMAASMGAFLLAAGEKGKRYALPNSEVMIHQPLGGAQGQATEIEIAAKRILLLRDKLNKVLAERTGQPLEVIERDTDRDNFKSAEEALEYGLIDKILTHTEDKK
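ClpP 10 microg/mL final, pH 8 Tris/KCl buffer with BSA, glycerol, Tween-20; compound pinned in; FRET-FV substrate; RT 20 min; Ex320/Em430; ΔFRET vs ADEP 5.8 microM, DMSO, no enzyme.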
Starred values were filed as active, the others as inactive; ? = inconclusive; / = not tested or not shown; & = joins results of further samples; [ ] = remark or other dose.

SMILES | gsp ag | gsp antagonist | Sfp PPTase inh | CtBP-E1A blk | Menin-MLL FL inh | TRPV1 PAM | ClpP mod
CC(=NO)C1CCC2C3CCC4CC(=NO)CCC4(C)C3C(C)(O)CC12C (stereo not given) | -5% | ? | / | 3 | / | / | -1.3%
O=C(O)C1C2C=CC(O2)C1C(=O)Nc1ccc2c(c1)OCCO2 (stereo not given) | / | / | -17% | / | -3.4 | -9 | /
CC(C)CN1CCCC(N2CCN(c3cccc(Cl)c3)CC2)C1 (stereo not given) | -19% | 6% | 0% | -8 | -1.5 | -7 | /
CC(C)C(=O)N(Nc1nc2ccccc2s1)C(=O)C(C)C | -7%[15.4 µM] | 14% | 19% | -19 | 3.5 | 3 | -3.4%
COc1cc(Cl)c(C)cc1NC(=O)CN1CCN(C(=O)C2CC2)CC1 | -14% | -18% | / | 0 | / | -20 | -0.3%
CN(CCO)C(=O)c1nc[nH]c1C(=O)N1CCN(C(=O)OC(C)(C)C)CC1 | -7% | / | / | 3 | / | / | 0.1%
Cc1onc(-c2ccc(Cl)cc2)c1-c1ccnc(SCC(=O)Nc2ccc(C(C)C)cc2)n1 | 6%[15.4 µM] | -17% | -28% | 3 | 5.4 | / | /
COC(=O)c1ccc(C2=NOC(C)(c3sc(-c4ccccc4)nc3C)C2)cc1 (stereo not given) | / | 2% | 18% | 2 | 3.4 | 0 | -7.4%
Cc1nc2ccccc2c(=O)n1NC(=O)c1c(F)cccc1F | -18% | 13% | 0% | 3 | -1.1 | -1 | 1.8%
Cc1cccc(N2CCN(Cc3nc(-c4ccccc4Cl)oc3C)CC2)n1 | -22% | -7% | -20% | 1 | -1.1 | -5 | /
COc1ccc(S(=O)(=O)NC2CC2)cc1-n1cnnn1 | -6% | 17% | 12% | 20 | -2.9 | 1 | /
COc1ccc(C(=O)Nc2ccc3nc(N4CCN(C)CC4)cc(C)c3c2)c(OC)c1 | 0%[15.4 µM] | 4% | -2% | 0 | -1.0 | -7 | -2.1%
COc1cc(SC)ccc1C(=O)Nc1ccc(S(=O)(=O)N2CCCC2)cc1 | 25% | 3% | -10% | 0 | -0.9 | 26 | ?
CCc1cc(C(=O)N2CCN(S(=O)(=O)c3ccc(Cl)cc3)CC2)sc1C | 26% | 0% | / | 1 | / | -14 | -0.9%
CC(C)CN(C(=O)c1ccc(S(=O)(=O)N2CCOCC2)cc1)C1CCS(=O)(=O)C1 (stereo not given) | 16%[15.4 µM] | 5% | / | 14 | / | -7 | /
O=C(COc1cccc2c1CCNC2=O)Nc1ccc(Cl)cc1 | 3% | 3% | / | 5 | / | 1 | -2.0%
COc1cccc(N(CC(=O)N2CCN(c3ccccc3OC)CC2)S(C)(=O)=O)c1 | -3% | -2% | 15% | -7 | -6.3 | -5 | 0.0%
CCCc1[nH]c(=O)c(C#N)c2c1COC(C)(C)C2 | -2% | 12% | 17% | 4 | 5.1 | 4 | 25µM*
CC(C)OCCCNC(=O)c1ccc(NS(C)(=O)=O)cc1 | -6% | -4% | 29% | 7 | -1.2 | 2 | -3.7%
COc1ccc(C(CC(=O)c2ccc3c(c2)OCO3)C(=O)O)cc1OC (stereo not given) | ? | / | / | -3 | / | / | -4.5%
O=C(O)/C=C/c1ccc(-n2ccnc2)cc1 | 9% | 17% | 0% | 10 | -3.0 | 11 | -0.5%
O=C(COc1ccc(S(=O)(=O)NC2CCCCC2)cc1)NCC1CCCO1 (stereo not given) | 0% | 4% | 26% | 2 | 2.2 | 15 | -1.1%
COc1ccccc1CNC(=O)c1cccnc1 | 2%[15.4 µM] | 4% | 17% | -1 | -1.9 | -4 | -7.5%
Cc1ccc(C)c(S(=O)(=O)Nc2ccc3sc(C)nc3c2)c1 | 0% | ? | 4% | -1 | 1.4 | 4 | -1.7%
Cc1cccc(OC(C)C(=O)OCC(=O)N2CCN(c3ccccc3)CC2)c1 (stereo not given) | -2%[15.4 µM] | -1% | / | -2 | / | / | -1.0%
Next compounds:
SMILES | gsp ag | gsp antagonist | Sfp PPTase inh | CtBP-E1A blk | Menin-MLL FL inh | TRPV1 PAM | ClpP mod
Oc1ccc2ccccc2c1/C=N/Nc1nnc(-c2ncc[nH]2)c2ccccc12 | 44% | 7% | 10% | -73* | ? | -25 | 2.7%
CCOc1ccc(C(C)(C)C)cc1S(=O)(=O)N1CC(C)OC(C)C1 (stereo not given) | 30% | -12% | 10% | 1 | -1.7 | -16 | -2.6%
CC(C)(C)c1ccc(S(=O)(=O)N2CCN(CC(=O)N3CC(=O)Nc4ccccc43)CC2)cc1 | ? | -18% | / | / | / | 7 | -1.3%
C=CCn1c(SCC(=O)Nc2cccc(S(=O)(=O)N(C)c3ccccc3)c2)nnc1C1CC1 | -1%[15.4 µM] | ? | / | 13 | / | 6 | -0.2%
O=C(CC1OC(=O)c2ccccc21)Nc1ccc(Cl)c(S(=O)(=O)N2CCCCC2)c1 (stereo not given) | -6% | -24% | / | -1 | / | 6 | -1.5%
COc1ccc(N2C(=O)C(Cl)=C(N(CCO)Cc3ccccc3)C2=O)cc1 | -23% | -20% | -11% | -1 | 0.0 | 15 | 0.9%
COc1ccc(C(=O)N/N=C/c2c(C)nn(-c3ccccc3)c2OC)cc1 | 0%[15.4 µM] | -18% | / | -5 | / | / | 0.5%
Cc1cc2nc(Sc3c([N+](=O)[O-])nc(C)n3Cc3ccccc3)[nH]c2cc1C | -9% | 1% | 13% | -3 | 0.3 | -8 | 2.6%
Cc1ccc(NC(=O)CSc2nnc(-c3ccoc3C)n2CCCN(C)C)cc1Cl | -5% | 14% | 9% | 0 | -6.1 | 22 | /
Cc1ccccc1-c1oc(C)c(C)[n+]1[O-] | -2%[15.4 µM] | 3% | 9% | -7 | 0.0 | 1 | -2.6%
CCCCNC(=O)COC(=O)c1ccc(F)cc1Cl | -4% | 0% | 5% | 0 | 0.7 | -8 | /
CNC(=O)c1cc(Cl)c(OC)c(OC)c1 | -1% | 9% | 45µM* | 3 | 3.3 | 2 | 0.6%
CCCn1c(=O)c2c(ncn2C)n(CCC)c1=O | / | 32%[activator] | 20% | -14 | 1.5 | -12 | -0.6%
COc1ccc(OC)c(/C=N\NC(=O)c2ccc(COc3ccc(C)cc3[N+](=O)[O-])o2)c1 | -21%[15.4 µM] | -15% | / | 9 | / | / | 0.9%
O=c1cc(CSc2nnc(Nc3ccccc3)s2)nc2sccn12 | 1% | -17% | 1% | -2 | 0.0 | 4 | -2.6%
Cc1cc([N+](=O)[O-])ccc1-c1ccc(C2Nc3ccccc3C(=O)N2O)o1 (stereo not given) | -21% | ? | -27% | -17 | ? | / | 0.2%
COc1cc(NC(=O)c2ccc(C(=O)c3ccccc3)cc2)cc(OC)c1OC | -59%[inhibitor] | ? | -1% | 11 | / | -13 | 1.3%
COc1ccc(N2CCN(C(=O)c3ccc(CS(=O)(=O)c4ccc(Br)cc4)o3)CC2)cc1 | -1% | 3% | 11% | -5 | / | 9 | -1.5%&-4.1%
O=C1C=C(Nc2ccc(O)cc2)CC(c2ccco2)C1 (stereo not given) | 0% | -3% | 9% | -9 | 3.2 | -19 | 1.7%
CSc1ccc(S(=O)(=O)Nc2ccc3c4c(cccc24)CC3)cc1 | -26% | 28µM* | -15% | -2 | 11 | -10 | -1.5%
Cn1c(=O)cc(OCCCC(=O)N2CCN(c3ccccn3)CC2)c2ccccc21 | -47%[inhibitor] | -3% | 6% | -2 | 7.0 | -10 | -11%
COc1ccccc1C(=O)N/C(=C/c1ccccc1)C(=O)Nc1ccc(C(=O)O)cc1 | -12% | ? | 3% | 0 | -3.2 | -4 | /
N#Cc1c(-c2ccc(F)cc2)nc2n(c1=O)CCS2 | 5% | 2% | 15% | 4 | 0.2 | -1 | -1.3%
Cc1nn(C(C)C(=O)NCCc2ccco2)c(=O)c2nn(-c3ccccc3)c(C)c12 (stereo not given) | -2% | 16% | 25% | 2 | / | 0 | -1.2%
Cc1ccc(C(=O)N2CCN(c3ccccc3O)CC2)cc1S(=O)(=O)N1CCCCC1 | -28% | -21% | / | 6 | / | -14 | -2.0%
More entries follow.
SMILES | gsp ag | gsp antagonist | Sfp PPTase inh | CtBP-E1A blk | Menin-MLL FL inh | TRPV1 PAM | ClpP mod
COC(=O)c1ccc(OC(=O)c2ccncc2)cc1O | -8% | 11% | 5% | / | -0.4 | -2 | -0.9%
COc1ccc(-n2c(C)cc(C(=O)COc3ccc(C)nc3[N+](=O)[O-])c2C)cc1 | -54%[inhibitor] | 4% | -12% | ? | 9.6 | 11 | 3.4%
Cc1ccc(S(=O)(=O)N(C)C)cc1NC(=O)C1CCCCN1S(=O)(=O)c1ccccc1 (stereo not given) | 17% | -9% | / | -17 | / | 9 | -2.8%
O=C(C(Cc1ccccc1)N1C(=O)C2C3CCC(C3)C2C1=O)N1CCCCC1 (stereo not given) | -38%[inhibitor] | -13% | 17% | -1 | 2.7 | -8 | -2.3%
CCCOC1CCCN(Cc2nc(-c3ccc(C(=O)OC)cc3)no2)C1 (stereo not given) | 3% | -9% | 13% | 7 | 2.3 | 12 | -0.7%
COc1ccc(-c2nc(C#N)c(N3CCCCC3)o2)cc1 | -2%[15.4 µM] | -22% | -20% | -16 | 0.2 | -22 | -2.0%
C=CCNC(=O)C(=O)NCCCN1CCOCC1 | 14% | 14% | -1% | 12 | -7.7 | 2 | 0.5%
COc1ccnc(N2CCN(c3ccc(Cl)cc3)CC2)c1C#N | 12% | ? | -25% | 7 | -1.8 | 2 | -0.5%
CCOC(=O)Cc1c(C)c2c(C)nn(-c3ccccc3)c2oc1=O | 0% | -11% | 10% | -13 | -0.1 | 1 | 35µM*
